# B2AR ag: human beta-2 adrenergic receptor agonism by FAP; P07550; Am2.2-beta2AR cells, FAP receptor internalization, flow cytometry; reference of the scale not given here; response, % (test concentration not listed); 0.43% of 340,000 active; AID 504454;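 active = response above a set limit, near 3 SD of response in nonfluorescent compounds, cut at about 42% in these data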;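 note: stock transfer was 100 nL into about 11 µL; a reference agonist was the positive control; negative values mostly stem from fluorescent compounds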
# Target sequence (P07550 whole entry, looked up): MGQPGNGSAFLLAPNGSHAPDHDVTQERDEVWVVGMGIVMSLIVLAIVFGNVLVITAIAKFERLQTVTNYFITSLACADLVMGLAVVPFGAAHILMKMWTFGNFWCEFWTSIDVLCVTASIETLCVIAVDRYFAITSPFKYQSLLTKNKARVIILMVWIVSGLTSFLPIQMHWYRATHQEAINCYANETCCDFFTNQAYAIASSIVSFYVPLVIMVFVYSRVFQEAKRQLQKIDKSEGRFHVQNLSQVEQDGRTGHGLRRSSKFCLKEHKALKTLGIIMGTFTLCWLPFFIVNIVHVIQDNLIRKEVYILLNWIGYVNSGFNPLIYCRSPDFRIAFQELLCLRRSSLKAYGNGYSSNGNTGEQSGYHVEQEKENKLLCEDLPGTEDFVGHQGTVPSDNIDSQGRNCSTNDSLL
# ALR inh: inhibitors of human sulfhydryl oxidase ALR. purified ALR, DTT oxidation, H2O2 HRP-luminol luminescence. inhibition, % (concentration not given with the values). 3.8% of 290,000 active;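 active = mean and each replicate at 75% or more; inconclusive = only one of the two met; inactive = neither met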;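 note: stock transfer was 7.5 nL into about 7.5 µL; 0% = neutral wells and 100% = wells with inactivated enzyme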
# HNF4A DNA FP: change in binding of human HNF4 alpha to DNA | P41235 | HNF4a-FITC DNA binding, fluorescence polarization, 1 h | activity change, % at 10 µM | 0.3% of 360,000 active; in the data active = activity change above about 30%, passing the limit was not always enough;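 note: controls were the assay level and a saturating level of protein; the project sought stronger binding though the title names inhibitors; some compounds called inactive have numbers as strong as hits; positive values seem to mean higher polarization but the record does not say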
# UCH37 DUB inh: inhibitors of human deubiquitinating enzyme UCH37; inhibition, % (no concentration beside the values); 0.33% of 330,000 active; purified proteasome/UCH37, Ub-AMC cleavage fluorescence; Q9Y5K5;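 active = mean of two replicates above 20%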;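 note: 0% = compound-free wells with enzyme and 100% = wells lacking proteasome; stock transfer was 100 nL into about 20 µL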
# Target sequence (Q9Y5K5 whole entry, looked up): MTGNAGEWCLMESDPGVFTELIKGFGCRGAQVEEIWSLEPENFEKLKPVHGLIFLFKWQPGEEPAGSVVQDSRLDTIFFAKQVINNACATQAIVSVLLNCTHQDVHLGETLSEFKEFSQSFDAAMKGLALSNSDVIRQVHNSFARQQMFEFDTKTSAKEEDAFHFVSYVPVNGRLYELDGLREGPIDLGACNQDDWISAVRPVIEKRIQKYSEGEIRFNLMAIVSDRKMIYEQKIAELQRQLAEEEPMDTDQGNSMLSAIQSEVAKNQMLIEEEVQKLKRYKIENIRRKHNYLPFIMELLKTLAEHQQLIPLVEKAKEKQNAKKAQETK
#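 Assay system: Proteasome-bound UCH37. Buffer or medium: pH 7.4 Tris-HCl (50 mM) with ovalbumin, ATP-MgCl2, DTT. Incubation: 30 min preincubation with enzyme, 25 min cleavage at room temperature. Measured by: fluorescence, ex 355 nm, em 460 nm. Read-out basis: percent inhibition. Control set: wells without proteasome as full block, compound-free enzyme plus substrate as uninhibited.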
# rRNA inh HTS: selective bacterial rRNA inhibition in E. coli. 1.6% of 350,000 active. E. coli WT GFP vs humanized-ribosome RFP mutants, fluorescence, 24 h; hits give low values; DMSO median 0, no signal -100. GFP signal change (wild-type ribosome), % (no concentration beside the values);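 active = significant combined selectivity score with lowered wild-type GFP, culture density cut under 30%, mutant RFP and density less affected; inactive = any of these conditions unmet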; note: one replicate is shown; some compounds called inactive have numbers as strong as hits
# FGF22 binding: shifts melting point of recombinant human FGF22 | recombinant FGF22 thermal shift, SYPRO orange fluorescence; percent of sucrose octasulfate shift, DMSO zero | AID 651658 | calls only at 9.99 µM | 1.5% of 340,000 active;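 active = melting point raised past a set limit in the mean and every replicate; inconclusive = no clear call; three in four hits are not shown here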
# Target sequence (Q9HCT0 whole entry, looked up): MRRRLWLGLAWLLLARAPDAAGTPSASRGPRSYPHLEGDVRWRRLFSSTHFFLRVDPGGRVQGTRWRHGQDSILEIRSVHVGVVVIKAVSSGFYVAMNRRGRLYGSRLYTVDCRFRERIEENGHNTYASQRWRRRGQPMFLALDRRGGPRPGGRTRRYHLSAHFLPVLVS
# E coli growth: E. coli growth inhibition | Escherichia coli growth, OD600, 23 h; hits give low values | OD600 absorbance (concentration not given with the values) | 0.21% of 330,000 active;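 active = OD600 absorbance below the run mean of sample wells minus 3.6 SD, in any replicate, cut at about 0.56 in these data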;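 note: stock transfer was 300 nL into about 60 µL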
# rRNA inh HTS OD600: also measured in rRNA inh HTS; calls as there; OD600 change, %; measured here: OD600 growth;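 optical density of the mix in the first replicate; 0 = DMSO median and -100 = no signal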
# rRNA inh HTS RFP: recorded beside rRNA inh HTS, whose call it bears; RFP signal change, %; measured here: RFP humanized mutant strains;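 first replicate; 0 = DMSO median and -100 = no signal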
# * = called active by the depositor; i = inactive; ? = inconclusive; . = not tested or not shown. This is a subset, so the mix of outcomes need not match the whole.
SMILES,B2AR ag,ALR inh,HNF4A DNA FP,UCH37 DUB inh,rRNA inh HTS,rRNA inh HTS OD600,rRNA inh HTS RFP,FGF22 binding,E coli growth
Cn1c(N)c(C(=O)COC(=O)/C=C/c2ccccc2)c(=O)n(C)c1=O,-3,5,6.9,5.2,-20*,-5.8*,4.5*,i,0.71
COc1ccc(OCC(=O)Nc2cccc(NC(=O)COc3ccc(OC)cc3)n2)cc1,6,-3,-1.3,4.3,.,.,.,.,0.68
O=C(Nc1ccc(C(F)(F)F)cc1)c1ccccc1Br,2,-13,-3.3,-59,6,3,-3.1,i,0.7
CCOC(=O)c1ccc2c(c1)nc(SCC(=O)c1ccco1)n2CC,-2,-5,-4.4,3.6,.,.,.,.,0.74
Cc1cc(=O)[nH]c(SCC(=O)c2ccc(C)c(C)c2)n1,1,?,-1.3,3.0,-10,-10,-5.4,.,0.69
O=C(O)c1cccc(-n2nnnc2SCc2ccccn2)c1,5,-6,1.0,-0.8,.,.,.,.,0.67
O=C(CCNC(=O)N1CC(=O)Nc2ccccc21)NCCc1cccc(F)c1,0,-1,4.8,-0.6,11,4,5.9,i,0.62
O=C1NC(=S)SC1=C1CCCC1,3,13,1.6,.,.,.,.,.,.
C/C(=N/NS(=O)(=O)c1cccc([N+](=O)[O-])c1)c1ccncc1,-6,-7,0.9,.,16,8,2.0,i,.
CS(=O)(=O)Nc1cccc(NC(=O)C2Cc3c(-c4ccccc4)ccnc3O2)c1 (stereo unspecified),.,.,1.9,.,-8,-9,-1.1,i,.
CC(OC(=O)c1ccc(S(=O)(=O)N(C)c2ccccc2)cc1)C(=O)NCCC1=CCCCC1 (stereo unspecified),13,.,5.2,10,14,0,6.8,i,0.73
CCn1cc(/C=C(\NC(=O)c2ccccc2Cl)C(=O)N2CCN(C)CC2)c2ccccc21,-4,.,5.4,8.4,0,8,1.5,i,0.71
CC(=O)N1CCc2cc(S(=O)(=O)NCC(=O)NCc3ccccc3Cl)ccc21,2,-20,-0.8,5.7,0,0,5.8,i,0.65
COc1ccc(C2CC(c3ccccc3)=NN2C(=O)COC(=O)c2cccc(S(=O)(=O)N3CCOCC3)c2)cc1 (stereo unspecified),-2,-3,2.1,3.1,.,.,.,.,0.73
O=C(CSc1nnc(-c2cccs2)n1-c1cccc(Cl)c1)c1cccc2c1OCCO2,9,-19,2.5,1.6,.,.,.,.,0.71
COc1cccc(NC(=O)c2ccc3nsnc3c2)c1,-3,-4,-2.3,-1.2,-1,-5,-4.4,i,0.67
COc1ccc(OCC(=O)Nc2cccc(NC(=O)c3ccco3)c2)cc1,-20,15,0.1,5.2,-23,-20,-4.1,i,0.63
COc1ccc(NC(=O)C(C)N(C)Cc2ccc3ccccc3c2)cc1 (stereo unspecified),2,-17,1.7,2.3,-2,-54,-10,i,0.64
Nc1nccc(-c2ccc(-n3cnc4ccccc43)cc2)n1,1,0,1.2,-20,-4,-9,-2.3,.,0.69
NNc1nc(-c2ccccc2)c2ccccc2n1,-2,.,-3.6,-0.6,-10,1,6.4,i,0.66
COC(=O)c1ccc(COc2ccc(/C=N/NC(=O)C(=O)Nc3ccc(OC)cc3)cc2OC)o1,24,-5,-3.4,.,16,11,2.2,i,.
CCCCn1c(N)c(N(CCOC)C(=O)CSc2n[nH]c(-c3ccc(OC)cc3)n2)c(=O)[nH]c1=O,5,50,-1.1,.,9,12,4.8,i,.
CCN(CC(=O)NC(=O)NCc1ccccc1)Cc1ccccc1,-5,-2,4.8,4.2,-23*,-15*,2.5*,i,0.67
Cc1ccc(C(=O)NCC(=O)N2CCCCCCC2)cc1C,-6,-1,0.0,1.5,-2,-5,-1.7,i,0.67
Cc1cccc(/C=C(\C(=O)C(=O)O)c2ccc3ccccc3n2)c1,8,2,7.5,-29,-2,-6,1.7,i,0.69

# As a working copy, part of the list above.
SMILES,B2AR ag,ALR inh,HNF4A DNA FP,UCH37 DUB inh,rRNA inh HTS,rRNA inh HTS OD600,rRNA inh HTS RFP,FGF22 binding,E coli growth
CS(=O)(=O)Nc1cccc(NC(=O)C2Cc3c(-c4ccccc4)ccnc3O2)c1 (stereo unspecified),.,.,1.9,.,-8,-9,-1.1,i,.
CC(OC(=O)c1ccc(S(=O)(=O)N(C)c2ccccc2)cc1)C(=O)NCCC1=CCCCC1 (stereo unspecified),13,.,5.2,10,14,0,6.8,i,0.73
CCn1cc(/C=C(\NC(=O)c2ccccc2Cl)C(=O)N2CCN(C)CC2)c2ccccc21,-4,.,5.4,8.4,0,8,1.5,i,0.71
CC(=O)N1CCc2cc(S(=O)(=O)NCC(=O)NCc3ccccc3Cl)ccc21,2,-20,-0.8,5.7,0,0,5.8,i,0.65

# The list goes on.
SMILES,B2AR ag,ALR inh,HNF4A DNA FP,UCH37 DUB inh,rRNA inh HTS,rRNA inh HTS OD600,rRNA inh HTS RFP,FGF22 binding,E coli growth
CC1CCCN(CCCNC(=O)c2cc3c(Cl)nc4ccccc4c3s2)C1 (stereo unspecified),7,-3,-0.7,6.1,-12,-21,8.4,i,0.69
COc1ccc(C(=S)N2CCCC2)cc1C,-8,-14,-0.2,0.5,12,11,0.9,.,0.69
Nc1ncnc2c1CN(Cc1ccccc1)CC2,-1,.,-3.7,3.1,15,4,0.5,i,0.66
O=C(CCN1C(=O)C2C3C=CC(C3)C2C1=O)NCc1cccnc1 (stereo unspecified),19,.,1.7,4.9,.,.,.,.,0.76
Cc1onc(-c2ccccc2)c1C(=O)NCCc1ccc(Cl)cc1,-4,-5,2.1,4.5,.,.,.,.,0.73
CN(C)c1ccc(C(O)c2cc3ccccc3s2)cc1 (stereo unspecified),-2,.,4.5,3.8,-2,9,6.7,i,0.72
Nn1c(Cc2ccccc2)nc2sc3c(c2c1=O)CCC3,-1,-4,7.5,2.0,8,0,-3.2,i,0.7
Clc1ccc(SCCn2cncn2)cc1,2,-7,-0.8,1.7,.,.,.,.,0.7
O=c1c(/C=C(\O)c2ccccc2)nc2ccccc2n1-c1ccccc1,.,-4,46*,-3.1,.,.,.,.,0.78
O=C(CSC(=S)N1CCOCC1)Nc1ncc2c(n1)CCCC2=O,-2,.,3.4,5.9,14,-8,1.0,i,0.71
CC1CCN(c2ccccc2NC(=O)c2ccc(F)cc2)CC1,-2,-13,-3.5,-0.1,.,.,.,.,0.74
C#CCn1c(=NC(=O)CN2C(=O)CCC2=O)sc2cccc(C)c21,2,-3,-2.7,-0.8,0,-3,-3.4,i,0.79
COc1cccc(CN2CCNC(=O)C2CC(=O)NCCN2CCCCC2=O)c1 (stereo unspecified),4,-17,-3.4,.,1,0,-1.0,i,.
CN(CC(=O)Nc1ccccc1Cl)C(=O)CCc1nc2ccccc2c(=O)[nH]1,0,2,2.9,-0.3,6,13,3.1,i,0.59
Cc1ccc(/S(C)=N/S(=O)(=O)c2ccc(C)cc2)cc1 (stereo unspecified),-1,-4,-1.2,0.1,.,.,.,.,0.72
CC1(C(=O)Nc2nc3ccccc3s2)CC1(Br)Br (stereo unspecified),17,-2,-1.7,2.9,-14,-30,-1.9,i,0.6
Cc1cc(C(=O)N2CCCC(N3CCN(c4cccc(Cl)c4)CC3)C2)no1 (stereo unspecified),-5,80*,-3.6,1.8,-9,-5,2.0,i,0.7
CC(c1ccon1)N(C)C(=O)c1ccc(OC2CCN(C(=O)C3CC3)CC2)cc1 (stereo unspecified),6,-7,0.1,0.1,-3,-4,-0.3,i,0.7
CC(N)C12CC3CC(CC(O)(C3)C1)C2 (stereo unspecified),5,-7,-0.4,1.5,13,11,-8.3,.,0.65
COC(=O)/C=C/c1ccc(-n2ccnc2)cc1,3,-13,-3.2,2.1,-30*,-23*,0.6*,i,0.65
O=C(CSc1nnc(-c2ccc(O)cc2)n1Cc1ccco1)c1cccs1,-20,99*,4.9,5.6,.,.,.,.,0.72
CSc1ncnc2c1ccn2CC(=O)Nc1ccc(C)c(C)c1,-8,1,1.3,1.6,6,31,0.9,i,0.74
CCNC(=S)N1CCN(S(=O)(=O)c2cccc(C(F)(F)F)c2)CC1,-8,-5,5.4,2.9,.,.,.,.,0.72
COc1cccc(C(=O)N(c2ccccc2)C2C=CS(=O)(=O)C2)c1 (stereo unspecified),1,-7,1.6,2.2,12,11,-0.4,i,0.72
COc1cc2c(cc1OC)C(C)N(C(=O)CCNC(=O)c1ccccc1)CC2 (stereo unspecified),1,-4,3.4,0.1,2,10,1.2,i,0.63
# Carrying on:
SMILES,B2AR ag,ALR inh,HNF4A DNA FP,UCH37 DUB inh,rRNA inh HTS,rRNA inh HTS OD600,rRNA inh HTS RFP,FGF22 binding,E coli growth
CCNc1nc(NCC)n2c(SCC(=O)Nc3cccc(Cl)c3)nnc2n1,24,-5,-3.3,2.1,.,.,.,.,0.62
CC(C)c1ccc(OCC(=O)NC2CC(C)(C)NC(C)(C)C2)c(Br)c1,-5,38,-0.4,3.5,-5,-3,4.8,i,0.69
O=C(Cn1c2ccccc2c2nc3n(c(=O)c21)CCS3)N1CCCC1,-5,-17,-2.1,-28,.,.,.,.,0.68
COc1ccc(OC)c(C(=O)c2oc3ccccc3c2NC(C)=O)c1,-3,-9,-0.6,8.6,.,.,.,.,0.73
Cc1sc2nc(CN3CCOCC3)nc(Oc3ccc(NC(=O)c4ccco4)cc3)c2c1C,-17,.,0.2,1.7,.,.,.,.,0.69
CC(=O)C[C@@H]1SC[C@H](c2ccccc2)N1S(=O)(=O)c1ccc(C)cc1,.,.,1.6,.,-11,-7,2.8,i,.
COc1ccc(S(=O)(=O)Cc2ccc(C(=O)N3CC(C)CC(C)C3)o2)cc1 (stereo unspecified),-2,.,2.0,3.3,-11,-12,1.9,i,0.75
COc1ccc(NC(=O)c2ccc(NC(=O)CN3CCN(c4ccccc4)CC3)cc2)cc1,2,-3,-1.3,-2.7,4,9,-2.3,i,0.69
CCOC(=O)c1c(NC2=NS(=O)(=O)c3ccccc32)sc2c1CCC(C)C2 (stereo unspecified),-19,-11,4.3,.,.,.,.,.,.
CCOC(=O)C(C(=O)NCCCN1CCOCC1)C1CCCCC1 (stereo unspecified),-2,-14,1.6,3.7,.,.,.,.,0.75
Cc1cc(C)c(S(=O)(=O)c2cccc(Cl)c2)c(Cl)n1,-5,-1,1.5,2.6,-2,-2,-7.9,i,0.69
O=C(c1cccs1)N1CCN(Cc2nc(-c3ccccc3)no2)CC1,.,.,-2.1,.,7,11,1.8,i,.
Cc1cccc(C(=O)NCCCNC(=O)c2ccc(C)nc2)c1,-9,-2,3.0,3.7,6,14,-1.7,i,0.66
CCNC(=S)N/N=C/c1ccc(OCCOc2ccccc2C)cc1,4,1,0.8,.,.,.,.,.,.
CC(=O)c1cccc(NC2c3ncccc3C(=O)N2Cc2ccco2)c1 (stereo unspecified),3,.,0.9,0.0,11,7,-5.1,i,0.68
CCOC(=O)C(CC)Sc1nc2c(c(=O)[nH]c(=O)n2C)n1CCc1ccccc1 (stereo unspecified),-1,-17,-1.6,8.1,.,.,.,.,0.71
O=C1[C@H]2[C@@H](c3ccccc3)N[C@]3(CCCN(Cc4ccco4)C3=O)[C@H]2C(=O)N1Cc1ccccc1,.,.,-1.4,.,7,7,6.6,i,.
CCCS(=O)(=O)NCCc1cc2c(OC)ccc(OC)c2[nH]c1=O,9,-31,1.1,-1.2,.,.,.,.,0.72
O=C(CSc1nc2ccccc2n1-c1ccccc1)Nc1ncc(Cl)cc1Cl,-18,-6,-0.4,-0.7,-33,-28,-5.1,i,0.64
Cc1ccc2cccc(Oc3ccc([N+](=O)[O-])cc3[N+](=O)[O-])c2n1,2,-4,1.1,2.7,.,.,.,.,0.72
Nn1c(Cc2cccc3ccccc23)nnc1SCc1ccccc1,-15,-4,2.7,3.5,2,4,-0.2,i,0.63
O=C(NCC(c1cccnc1)N1CCN(c2ccccc2F)CC1)c1cccc(Cl)c1 (stereo unspecified),-1,11,-1.3,3.4,.,.,.,.,0.71
